# gsp agonist: activates gsp, the McCune-Albright syndrome mutation. 340,000 tested, 0.13% active. Potency, µM (titrated, usually from 76.9 µM), for inactives: at the top dose activation (cAMP increase), usual class: activators. gsp mutant cells, cAMP HTRF, 30 min; control for the full effect not named in the record; active = well fitted activation curve with a large enough effect; inconclusive = small, poorly fitted or top-dose-only effect, or another doubt; inactive = no such curve, though single readings can be large or run the other way; cell line not stated here;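 also: phosphodiesterase inhibitor Ro 20-1724 added with compounds to block cAMP breakdown; potency is read from the fitted curve at half-maximal effect; nearly all actives have a fitted effect of over 60% in size; about a fifth of the inactives were tested at one dose only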
#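 Cells stably selected in G418 were plated at 2000/well, grown 16-24 hr, then given compounds in DMSO with the PDE inhibitor […] (300 uM solution added) for 30 min at 37C; cAMP was read by HTRF.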
# ClpP mod: qHTS Assay for Activators of ClpP; ATP-dependent Clp protease proteolytic subunit (Bacillus subtilis (strain 168)), P80244; 340,000 tested, 1.9% active; purified B. subtilis ClpP, FRET peptide cleavage, 20 min; Potency, µM (titrated, usually from 57.5 µM), without a hit: at the highest dose activity change, negative = active; active = well fitted falling curve with a large enough effect; inconclusive = small, poorly fitted or top-dose-only effect; inactive = no such curve, though single readings can be large or run the other way; also: potency is read from the fitted curve at half-maximal effect; the source files actives as falling curves though it sought activators and does not explain the sign; nearly all actives have a fitted effect of over 65% in size; many hits overshoot -100%
# Target sequence (P80244 whole entry, looked up): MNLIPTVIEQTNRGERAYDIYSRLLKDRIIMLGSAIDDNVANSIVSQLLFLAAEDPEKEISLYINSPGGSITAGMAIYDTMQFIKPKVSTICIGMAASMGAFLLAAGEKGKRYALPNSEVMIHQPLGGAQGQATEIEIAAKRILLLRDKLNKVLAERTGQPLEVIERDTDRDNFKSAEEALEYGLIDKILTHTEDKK
#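 ClpP 10 microg/mL final, pH 8 Tris/KCl buffer with BSA, glycerol, Tween-20; compound pinned in; FRET-FV substrate; RT 20 min; Ex320/Em430; ΔFRET vs ADEP 5.8 microM, DMSO, no enzyme.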
# TRPML1 inh: inhibitors of human TRPML1 channel; TRPML1-inducible cells, Ca2+ dye fluorescence, FDSS; hits give low values; inhibition of EC80 agonist-evoked calcium signal; activity change, negative = inhibition, % (test concentration not listed); 390,000 tested, 0.02% active; in the data active means activity change below about -50%; inconclusive means about -30% to -50%; inactive means above about -30%;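 also: stimulus is agonist 54-4 at its EC80 concentration; % is scaled to controls: 0 for no effect and ±100 for the full control effect; compound concentration not given in the record; the text of the record puts the active cut at -80%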
#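 Calcium fluorescence in TRPML1-DL cells induced overnight with Tet: a 110 s read after compound pin addition, then a 110 s antagonist read after challenge with 54-4 at 4 uM final (EC80).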
# Sfp inh: Sfp phosphopantetheinyl transferase inhibition; 310,000 tested, 3.5% active; Biochemical Sfp PPTase activity, qHTS; Q9F4F7; Potency, µM, for inactives: max response, negative = inhibition, actives largely listed as inhibitors; AID 1490; active = well fitted inhibition curve with a large enough effect; inconclusive = small, poorly fitted or top-dose-only effect, or another doubt; inactive = no such curve, though single readings can be large or run the other way;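 also: the enzyme is Sfp with the accession as filed and its product quenches rhodamine fluorescence; potency is read from the fitted curve at half-maximal effect; 0% = enzyme reaction without inhibitor and -100% = no enzyme wells; top concentration of the series not given in the record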
#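 Buffer: 50 mM Hepes-Na pH 7.6, 10 mM MgCl2, 0.01% Nonidet P-40, 0.01% BSA. Enzyme 15 nM, pre-exposed to compound 15 min; substrates then added and fluorescence change tracked over 30 min.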
# gsp antagonist: antagonizes gsp, the McCune-Albright syndrome mutation. gsp-mutant cells, cAMP HTRF, 30 min; control for the full effect not named in the record. Potency, µM (top dose mostly 76.9 µM), without a hit: top-dose activity change, negative = inhibition, most hits filed as inhibitors. 340,000 tested, 0.4% active. AID 624288; active = falling curve of any shape with a large fitted effect; inconclusive = falling curve, mostly with a smaller effect; inactive = flat or rising curve; cell line not stated here;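 also: intracellular cAMP measured with PDE inhibitor Ro 20-1724 present during compound exposure; potency is read from the fitted curve at half-maximal effect; % is scaled to controls: 0 for no effect and ±100 for the full control effect; nearly all actives have a fitted effect of over 65% in size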
#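 HTRF cAMP read-out (cAMP-d2 plus anti-cAMP antibody-K in lysis buffer, 30 min RT). Before lysis, cells are exposed to compounds with […] for 30 min at 37C in DPBS containing Ca/Mg, BSA and Tween 20.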
# TRPV1 potentiator: human TRPV1 potentiation; Q8NER1; TRPV1-expressing cells, Fluo-8 calcium influx, capsaicin EC20 potentiation; host cell line not named in the record; control for the full effect not named in the record; potentiation, % at 8.33 µM; 320,000 tested, 0.02% active; active means potentiation above 80%; inconclusive means 30% to 80%; inactive means below 30%; also: 0% is about no effect
# Target sequence (Q8NER1 whole entry, looked up): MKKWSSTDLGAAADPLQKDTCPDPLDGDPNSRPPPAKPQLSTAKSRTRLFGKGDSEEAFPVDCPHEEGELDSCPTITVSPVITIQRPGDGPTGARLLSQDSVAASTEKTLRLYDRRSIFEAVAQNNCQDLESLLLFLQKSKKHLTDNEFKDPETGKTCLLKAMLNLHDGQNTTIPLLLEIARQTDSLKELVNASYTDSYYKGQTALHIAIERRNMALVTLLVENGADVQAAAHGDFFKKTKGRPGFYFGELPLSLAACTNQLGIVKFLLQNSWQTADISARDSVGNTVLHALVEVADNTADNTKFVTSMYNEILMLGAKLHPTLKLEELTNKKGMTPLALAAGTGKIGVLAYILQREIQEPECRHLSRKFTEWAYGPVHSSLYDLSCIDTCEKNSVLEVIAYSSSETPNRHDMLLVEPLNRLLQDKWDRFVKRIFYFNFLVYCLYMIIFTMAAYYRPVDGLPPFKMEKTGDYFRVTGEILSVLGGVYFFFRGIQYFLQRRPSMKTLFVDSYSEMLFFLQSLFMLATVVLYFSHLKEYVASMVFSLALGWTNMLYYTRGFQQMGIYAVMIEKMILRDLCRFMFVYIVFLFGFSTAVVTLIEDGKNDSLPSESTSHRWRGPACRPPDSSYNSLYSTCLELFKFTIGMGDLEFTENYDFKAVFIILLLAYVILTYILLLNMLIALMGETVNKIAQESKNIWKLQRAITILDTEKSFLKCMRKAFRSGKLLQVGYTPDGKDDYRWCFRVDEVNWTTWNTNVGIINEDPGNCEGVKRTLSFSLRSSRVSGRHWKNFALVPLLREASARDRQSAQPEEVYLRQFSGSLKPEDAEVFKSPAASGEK
#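 TRPV1-expressing cells were cultured overnight at 35.5C and loaded with Fluo-8 calcium dye for 40 to 90 min at room temperature. After a 10 s baseline, compound was added and calcium influx was read kinetically for 3 min (ex 480/em 520 nm).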
# Menin-MLL FL inh: menin-MLL binding inhibition, fluorescein peptide | Fluorescence polarization, fluorescein-MLL peptide displacement from menin | FP activity change, % at 61.4 µM | 290,000 tested, under 10 active; inconclusive = falling polarisation curve, or a change in total fluorescence; inactive = total fluorescence flat and polarisation flat or rising; no compound was filed as active; the % refers to the polarisation; negative = inhibition;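 also: % of control where 0% means no effect; inhibitors lower the polarisation; unlabelled MLL peptide was the positive control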
# The depositor's hits bear a star; u = inconclusive; x = not tested or not shown; & = joins results of further samples; [ ] = another dose, or the depositor's remark. An unsorted share of the library (roughly 4.9% active in at least one column).
Molecule	gsp agonist	ClpP mod	TRPML1 inh	Sfp inh	gsp antagonist	TRPV1 potentiator	Menin-MLL FL inh
CCOC(=O)c1cnc2cc3c(cn2c1=O)CCCC3	11%	u	30	13%	1%	3	-0.1
Cc1ccc(S(=O)(=O)N2CCC(C(=O)N3CCC[C@H]3C(=O)NC3CCS(=O)(=O)C3)CC2)cc1 (some centres not stated)	-26%	0.1%	10	-4%	10%	7	1.1
COc1ccc(CCNC(=O)CCNC(=O)N2CC(=O)Nc3ccccc32)cc1	u	0.1%	-5	8%	3%	u	x
COc1cc(/C=N/N2CCN(c3ccccc3OC)CC2)ccc1O	28%	-1.0%	2	6%	-11%	-6	1.2
Cc1nc(N)c(C#N)c(-c2ccccc2)c1C	3%	-17%	-2	16%	-5%	-3	2.7
CN1CCCN(C2C3CC4CC(C3)CC2C4)CC1 (configuration not stated)	-22%	-0.7%	-3	79µM*	10%	-13	2.1
CC1CN(S(=O)(=O)c2cc(C(=O)NCCCN3CCCC3=O)ccc2Cl)CC(C)O1 (configuration not stated)	5%[15.4 µM]	-2.0%	7	x	4%	x	x
CC(C)Cc1nnc(NC(=O)CCC(=O)Nc2ccc3cn[nH]c3c2)s1	2%	-0.3%	28	2%	3%	6	0.9
O=C(NCc1ccccc1CN1CCCCC1)c1ccccc1N1CCCC1=O	-7%	-0.2%	-1	x	14%	-3	x
Cc1sc(NC(=O)c2ccco2)c(C(c2ccccc2)N2CCC(C)CC2)c1C (configuration not stated)	-43%[inhibitor]	28µM*	-11	-1%	2%	24	-1.9
CCCCCCn1nc(C(=O)OCC(=O)c2c(N)n(C)c(=O)n(C)c2=O)c2ccccc2c1=O	-75%[inhibitor]	x	5	-6%	-23%	10	2.7
Cc1nc(-n2nnc3ccccc32)c2c3c(sc2n1)CCCC3	1%	u	-17	-13%	-18%	-12	1.4
CC1CN(C(=O)CCC(=O)NCCCN2CCC(Cc3ccccc3)CC2)c2cc(Cl)ccc2O1 (configuration not stated)	-9%[15.4 µM]	x	-18	-3%	16%	-1	3.4
CCCCSC1(SCCCC)N=C(N)C2(C#N)C(c3ccccc3)NC(C)=C(C)C12C#N (configuration not stated)	-2%	5.5%	-17	3%	-11%	0	-0.4
O=C(NCSC1=NCCS1)c1ccccc1	0%	-0.4%	14	6%	1%	-4	-0.3
O=C(N/N=C\c1cc2c(cc1Cl)OCO2)c1cccnc1	u	-2.8%	-16	9%	-3%	-9	-0.8
CCOC(=O)CNC(=O)C12CC3CC(C1)CC(c1ccc(C)cc1)(C3)C2	12%[15.4 µM]	0.2%	9	7%	-27%	7	-0.4
CCCC1=Nc2cc(C(=O)NCCCN3CCOCC3)ccc2Sc2ccccc21	51%	-0.4%	4	0%	-6%	-19	-0.7
O=C(CSc1nnc(-c2ccccc2F)n1C1CC1)Nc1cccnc1Cl	-9%	u	0	-6%	0%	2	2.2
COc1ccc(C(=O)N/C(=C\c2cn(S(=O)(=O)N(C)C)c3ccccc23)C(=O)NCCN2CCOCC2)cc1OC	u	-0.4%	22	16%	0%	25	-1.0
Cc1ccc(S(=O)(=O)NNC(=O)CCCCC(=O)NNS(=O)(=O)c2ccc(C)cc2)cc1	46%	x	-22	17%	10%	1	3.5
O=C(CNC(=O)c1ccc2c(c1)OCO2)N/N=C/c1cccc([N+](=O)[O-])c1	-31%[inhibitor]	0.1%	-3	8%	4%	9	-3.6
COC(=O)C1CCN(C(=O)c2ccc3oc(Cc4ccc(Cl)cc4)nc3c2)CC1	u	0.5%	-7	16%	1%	7	x
O=C(NNC(=S)NC(=O)c1ccco1)c1ccc(NC(=O)c2ccccc2)cc1	-8%[15.4 µM]	x	6	-11%	-19%	19	-2.6
O=C(Cc1ccccc1)N/N=C/c1cccnc1	-11%[15.4 µM]	0.4%	-24	8%	10%	5	-9.1

# The list goes on; it opens with the two that closed the last part.
Molecule	gsp agonist	ClpP mod	TRPML1 inh	Sfp inh	gsp antagonist	TRPV1 potentiator	Menin-MLL FL inh
O=C(NNC(=S)NC(=O)c1ccco1)c1ccc(NC(=O)c2ccccc2)cc1	-8%[15.4 µM]	x	6	-11%	-19%	19	-2.6
O=C(Cc1ccccc1)N/N=C/c1cccnc1	-11%[15.4 µM]	0.4%	-24	8%	10%	5	-9.1
C=CCn1c(=NC(=O)C2CCCCC2)sc2cc(NC(C)=O)ccc21	u	4.2%	1	13%	-4%	0	4.3
CC(C)CCNC(=O)C1(c2cccs2)CCOCC1	-4%	0.3%	x	12%	-8%	3	1.2
CC1(OC(=O)CCc2ccccc2)C(=O)C=C2C=C(c3ccc(C#N)cc3)N(CCc3ccccn3)C=C2C1=O (configuration not stated)	x	-2.4%	0	0%&-19%	-8%	-31	u
CCOc1ccc(OCCNCc2ccc(OC(C)C(=O)N(C)C)c(OCC)c2)cc1 (configuration not stated)	u	-2.2%	-10	u	14%	-3	-15
Cc1ccccc1NC(=O)c1ccc(NS(=O)(=O)c2cc(C(C)(C)C)cc(C)c2C)cc1	5%[15.4 µM]	-0.5%	-5	20%	u	11	-0.9
COc1cc(/C=C(\C#N)C(=O)NCC2CCCO2)ccc1OC(C)C (configuration not stated)	-2%	-0.9%	18	16%	-4%	4	1.5
Cc1cc(N2CCOCC2)ccc1/C=C1\NC(=O)N(CC(=O)Nc2ccc(F)cc2)C1=O	u	-1.0%	-1	-10%	5%	3	3.2
CCNC(=O)N1C(=O)C2(OCCO2)c2cc(Br)ccc21	8%	0.9%	3	15%	7%	2	5.0
N=c1ccn(Cc2ccc(Cl)c(Cl)c2)cc1	-2%	-11%	-12	2%	1%	-8	1.8
Cc1cccc(N2CCN(S(=O)(=O)c3c(C(=O)N4CCCCC4)c(C)n(C)c3C)CC2)c1C	-22%	-0.2%	5	8%	-18%	12	x
N#CCSc1nnc(-c2ccc(F)cc2)n1N	-1%	1.1%	6	9%	0%	1	-4.1
O=C(/C=C/c1ccccc1)Nc1ccc(Cl)cn1	-2%[15.4 µM]	x	-11	-3%	11%	3	-1.8
O=C1C=C(c2ccccc2)C(c2ccccc2)C1 (configuration not stated)	-24%	x	-20	x	1%	x	x
CCOC(=O)C(NC(C)=O)C(=O)Nc1c(C)cccc1C (configuration not stated)	-2%[15.4 µM]	x	-8	10%	17%	0	-7.9
CCCCOc1ccc(Cc2c(Cl)nc(SC)nc2N2CCOCC2)cc1	-1%	-0.8%	-9	-25%	14%	0	3.5
O=C1C2CCCN2C(=O)N1CCCN1CCN(c2cccc(Cl)c2)CC1 (configuration not stated)	17%	1.7%	-10	27%	8%	-3	0.0
COc1cc(/C=C2/C(=O)CNC2=O)ccc1O	u	0.8%	-7	u	-10%	-8	u
O=C(COCC(=O)N1CCOCC1)N1CCOCC1	1%	x	-4	5%	7%	3	0.4
COc1ccc(C(=O)NN)cc1	-3%[15.4 µM]	x	2	12%	-13%	-30	-1.3
COC(=O)C1CCN(C(=O)c2ccc(SC)cc2OC)CC1	39%	0.2%	76	-3%	2%	-8	-0.3
Cc1cccc(Oc2nc3ccccn3c(=O)c2/C=C(\C#N)C(=O)NC2CCS(=O)(=O)C2)c1 (configuration not stated)	1%	25µM*	7	28%	11%	4	3.6
CC(C)C(=O)C1=Cc2cc([N+](=O)[O-])ccc2OC1N1CCOCC1 (configuration not stated)	-24%	1.2%	8	6%	-12%	-6	0.2
Cc1onc(-c2ccccc2)c1C(=O)N/N=C/c1ccco1	6%	x	-19	17%	-2%	7	2.3
Cc1cc(Nc2ccccc2)nn1C(=O)c1ccccc1	-29%	-1.1%	-4	-19%	-22%	-14	-0.2
Cc1csc(SCC(=O)NC2CCC(C)CC2)n1 (configuration not stated)	0%[15.4 µM]	2.3%	-11	x	2%	-1	x

# Compound profiles (already shown):
# CC(C)C(=O)C1=Cc2cc([N+](=O)[O-])ccc2OC1N1CCOCC1 (configuration not stated) as listed: gsp agonist = -24%; ClpP mod = 1.2%; TRPML1 inh = 8; Sfp inh = 6%; gsp antagonist = -12%; TRPV1 potentiator = -6; Menin-MLL FL inh = 0.2
# CCCCOc1ccc(Cc2c(Cl)nc(SC)nc2N2CCOCC2)cc1 as listed: gsp agonist = -1%; ClpP mod = -0.8%; TRPML1 inh = -9; Sfp inh = -25%; gsp antagonist = 14%; TRPV1 potentiator = 0; Menin-MLL FL inh = 3.5

# The listing continues.
Molecule	gsp agonist	ClpP mod	TRPML1 inh	Sfp inh	gsp antagonist	TRPV1 potentiator	Menin-MLL FL inh
COc1ccccc1CCC(=O)OC(C)C(=O)Nc1c(C)n(C)n(-c2ccccc2)c1=O (configuration not stated)	u	0.1%	-5	x	14%	5	x
CCn1c(=O)cc(N2CCN(C(=O)c3ccco3)CC2)[nH]c1=O	-16%	-0.5%	x	u	22%	0	-1.5
COc1ccc(Cc2n[nH]c(=S)n(N)c2=O)cc1	-7%[15.4 µM]	x	18	56µM*	3%	3	5.0
Cc1c(Cl)cccc1NC(=O)C1CCCN(S(C)(=O)=O)C1 (configuration not stated)	-3%	0.8%	-27	13%	4%	4	-0.1
O=C(Nc1cc(F)ccc1F)c1ccc2c(=O)n3c(nc2c1)CCC3	u	-4.6%	1	x	x	x	x
COc1ccc(C(CC(=O)c2ccc(O)cc2)S(=O)(=O)c2ccc(C)cc2)cc1 (configuration not stated)	-2%	-3.6%	56	2%	-33%	-14	0.5
CC(C)Cn1c(N)c(-c2nc(C(C)C)c(C(=O)c3ccccc3F)s2)c(=O)n(C)c1=O	x	x	x	-4%	x	8	-0.6

# Look-ups from the results shown.
# Entry of COc1ccc(C(CC(=O)c2ccc(O)cc2)S(=O)(=O)c2ccc(C)cc2)cc1 (configuration not stated) under TRPV1 potentiator: -14
# Entry of COc1ccc(Cc2n[nH]c(=S)n(N)c2=O)cc1 under Menin-MLL FL inh: 5.0

# Screening data: PubChem BioAssay, National Center for Advancing Translational Sciences (NCATS)
